Source: PubChem
CSC inhib: blocks cancer stem cells | cancer stem cell-like cells viability, luminescence | inhibition, % at 7.5 µM | 300,000 compounds, 1.1% hits;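 active means mean at 75% or more and at least half the replicates too; inconclusive means mean and replicates disagree; tested in HMLE shEcad cells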;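 further: 0% = median of negative and 100% = median of positive control wells; the first replicate is given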
UUG fidelity: yeast start codon fidelity modulation | S. cerevisiae UUG-firefly luciferase reporter, luminescence/redox ratio | activity score, % at 18.7 µM | 350,000 compounds, 0.13% hits | AID 602363;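 active means replicate mean at a twofold rise or more, about +100% in these data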;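 further: firefly luciferase made from a UUG start codon reports start codon fidelity; reporter light over untreated wells divided by growth signal over untreated wells; some hits fall short of that in this replicate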
eIF4H FP inh: inhibitors of RNA binding by human eIF4H; 290,000 compounds, 0.94% hits; eIF4H fluorescence polarization binding assay; inhibition, % at 35 µM; Q15056; AID 2012;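 active means 50% or more with normal probe brightness, or confirmed in later tests; inconclusive means above 50% with abnormal brightness, or retests that disagree; inactive means below 50% or failed in later tests; about a fifth of its hits are not listed in these tables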;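 further: calls also rest on retests at 20 µM and on dose response follow-up; 0% = protein and probe with vehicle and 100% = probe without protein; strong numbers were not always called active; many hits fall short of the cut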
PABP FP inh: PABP-poly(A) binding inhibition. P11940. PABP-poly(A) RNA binding, fluorescence polarization. inhibition, % at 35 µM. 290,000 compounds, 1% hits. AID 2014;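 active means 50% or more with normal probe brightness, or confirmed in later tests; inconclusive means above 50% with abnormal brightness, or retests that disagree; inactive means below 50% or failed in later tests; about a fifth of its hits are not listed in these tables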;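 further: calls also rest on retests at 20 µM and on dose response follow-up; controls were probe without protein and protein plus probe with vehicle; some compounds called inactive have numbers as strong as hits; many hits fall short of the cut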
Target sequence (P11940 whole entry, looked up): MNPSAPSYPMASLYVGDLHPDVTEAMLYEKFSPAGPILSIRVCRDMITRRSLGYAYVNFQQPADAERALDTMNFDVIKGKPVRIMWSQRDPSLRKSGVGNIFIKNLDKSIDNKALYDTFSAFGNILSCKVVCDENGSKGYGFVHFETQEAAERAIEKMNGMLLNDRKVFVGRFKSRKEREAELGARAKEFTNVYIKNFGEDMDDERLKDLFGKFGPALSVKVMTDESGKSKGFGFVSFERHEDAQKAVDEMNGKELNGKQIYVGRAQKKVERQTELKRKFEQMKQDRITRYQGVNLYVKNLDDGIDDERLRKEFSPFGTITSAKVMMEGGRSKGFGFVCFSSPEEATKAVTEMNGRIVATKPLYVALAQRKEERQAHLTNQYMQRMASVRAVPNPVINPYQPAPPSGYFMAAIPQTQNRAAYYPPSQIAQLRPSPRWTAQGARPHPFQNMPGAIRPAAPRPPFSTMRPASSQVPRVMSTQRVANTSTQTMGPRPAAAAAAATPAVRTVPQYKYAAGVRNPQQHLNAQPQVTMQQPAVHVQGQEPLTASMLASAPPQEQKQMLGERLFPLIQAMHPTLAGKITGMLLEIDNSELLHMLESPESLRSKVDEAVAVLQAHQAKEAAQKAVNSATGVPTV
Env fusion inh: blocks HIV Env-driven cell-cell fusion; HeLa-JRFL Env/CEM21 cell fusion, luciferase; inhibition, % at 12.3 µM; 360,000 compounds, 1.1% hits; AID 651610;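 active means mean replicate inhibition score of at least 50 and every replicate individually at or above 50; inconclusive means only one of the two criteria met; inactive means mean below 50 and not all replicates reaching 50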;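 further: 0% = plate neutral controls and 100% = maraviroc near 300 nM; one replicate is shown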
Rce1 inh: blocks yeast Ras-converting enzyme; 290,000 compounds, 0.27% hits; calls only; yeast membranes, quenched prenylated peptide cleavage fluorescence; Q03530;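 active means fall in fluorescence gain of 50% or more versus controls, with final raw signal at or below 3038400; inconclusive means same 50% fall but final raw signal above 3038400; inactive means fall in fluorescence gain under 50%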;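 further: plate controls were neutral control wells for no effect and wells lacking membranes for full effect; tested at 10 µM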
MT1-MMP act inh: inhibitors of human MT1-MMP activation | P50281 | HT1080 RFP-PRO-GFP cells, GFP/RFP ratio fluorescence, overnight; percent of plate control window, DMSO zero | GFP/RFP ratio change, % at 20 µM | 360,000 compounds, 0.061% hits | AID 651647;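 active means GFP/RFP ratio change of at least 30% with cell ATP level not reduced by more than half and red fluorescence within 50% of control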; further: strong numbers were not always called active
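Assay system: HT1080 RFP-PRO-GFP cells | Dosing: 20 µM single dose, 1% DMSO | Incubation: Cells overnight before dosing, compound overnight, 37 °C, 5% CO2 | Evaluation: GFP/RFP fluorescence ratio | Control set: DMSO-only wells and HT1080 RFP-L50D-GFP cell wells as references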
eIF4H FP inh retest: further read-out of eIF4H FP inh, marked with its call; inhibition, %; compound at 20 µM; confirmation average;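 mean of two retest wells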
PABP FP inh retest: second read-out of PABP FP inh, no call of its own (marks repeat the call); inhibition, %; compound at 20 µM; confirmation repeats;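 mean of two retest wells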
MT1-MMP act inh RFP: also measured in MT1-MMP act inh; calls as there; RFP signal change, %; measured here: RFP expression control read;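 0 = vehicle wells; hits needed this value within 50% of zero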
An asterisk follows results filed as active; i = inactive; ? = inconclusive; . = no result given.

SMILES	CSC inhib	UUG fidelity	eIF4H FP inh	PABP FP inh	Env fusion inh	Rce1 inh	MT1-MMP act inh	MT1-MMP act inh RFP	others
O=C(c1ccc2c(c1)N(Cc1ccc(F)cc1)CCS2)N1CCOCC1	-9	11	84	7	5	i	-3	-5	eIF4H FP inh retest=-6;PABP FP inh retest=7
Cc1nnc(NC(=O)COc2ccccc2)s1	.	-6	-7	6	-21	i	-1	2
O=C(CCl)Nc1cccc2ncccc12	-7	-10	104*	31*	1	i	-1	2	eIF4H FP inh retest=87*;PABP FP inh retest=87*
Cc1ccc(OCC(=O)NCCNC(=O)c2cnccn2)cc1	-24	-19	-3	6	11	i	-2	0
O=C(CCNC(=O)c1ccccc1Cl)Nc1nnc(C2CC2)s1	-7	.	-6	-7	6	i	-1	0
COc1ccccc1S(=O)(=O)Cc1ccc(C(=O)NCCCN2CCN(c3ccc(F)cc3)CC2)o1	-15	.	-12	-7	18	i	0	-3
CC(C)(C)c1nnc2sc(SCC(=O)c3ccccc3)nn2c1=O	3	-12	-2	-3	.	i	6	6
O=C(NCc1ccc(F)cc1)C1CCCN(S(=O)(=O)c2ccc(Br)s2)C1 (centres undefined)	-4	0	4	9	10	.	-5	-8
O=C(NCC(=O)N1CC(O)CC1C(=O)N1CCCC1C(=O)OCc1ccccc1)OCc1ccccc1 (centres undefined)	-2	.	-7	-6	14	i	6	3
CC(C)NC(=O)C1CCN(C(=O)c2cc3sccc3n2Cc2ccc(F)cc2)CC1	8	-7	-15	-6	.	i	-8	-19
COc1cccc(CNC(=O)C2CCC(=O)N(C3CC3)C2)c1OC (centres undefined)	.	-17	4	-2	1	i	3	5
CCn1nnnc1SCC(=O)c1cc(OC)ccc1OC	2	-5	-8	4	-28	i	2	2
CCN(Cc1ccccc1)C(=O)C(=O)c1cn(CC(=O)N2CCCC2)c2ccccc12	-8	-1	-17	-1	-10	i	4	1
C[C@H](NC(=O)c1ccc2ccccc2c1)C(=O)N1CCC2(CC1)NCCc1[nH]cnc12	-8	-9	.	.	4	i	0	4
CC1=C(C(=O)OCc2ccccc2)C(c2cccc([N+](=O)[O-])c2)NC(=O)N1C (centres undefined)	1	-5	1	7	32	i	6	-13
CC1=CC(=O)C=CC1(C)C(Cl)(Cl)Cl (centres undefined)	-11	-23	-2	20	.	i	-1	4
Cc1ccc(NC(=O)CN(C)S(=O)(=O)c2ccc3c(c2)c(=O)n(C)c(=O)n3C)cc1	5	-16	3	12	11	i	0	3
O=C(CC[C@H]1O[C@@H](n2ccc(=O)[nH]c2=O)[C@H](O)[C@@H]1O)N[C@H](Cc1ccccc1)C(=O)NCc1ccc2c(c1)OCO2	.	4	.	.	-43	.	6	7
Cc1ccc(S(=O)(=O)Nc2ccc3c(c2)ncn3C(C)(C)C)cc1	-3	-16	-5	-3	.	i	3	0
Cc1nc(-c2ccc(F)cc2)c(CC(=O)Nc2cc(S(=O)(=O)N3CCCCC3)ccc2C)s1	13	-6	.	.	.	i	1	2
O=C(NC1CCCCC1)C(c1ccc(F)cc1)N(Cc1ccc2c(c1)OCO2)C(=O)c1cnsn1 (centres undefined)	-10	-6	-10	3	.	i	0	-7
COC(=O)c1cc(Br)c(=O)n(-c2ccc(F)cc2)c1	-12	-17	-2	5	6	i	2	3
O=C(c1cccnc1)N1N=C(C2CCCCC2)CC1(O)C(F)(F)F (centres undefined)	1	.	-6	3	10	i	-1	-2
O=C(CN1CCN(S(=O)(=O)c2ccccc2)CC1)NC(=O)NCc1ccco1	-9	0	10	-3	2	i	1	6
Cc1cccc(OCC(=O)N(Cc2ccc(N(C)C)cc2)C2CCS(=O)(=O)C2)c1 (centres undefined)	-4	-3	6	-8	15	i	3	2

Further records:
SMILES	CSC inhib	UUG fidelity	eIF4H FP inh	PABP FP inh	Env fusion inh	Rce1 inh	MT1-MMP act inh	MT1-MMP act inh RFP	others
CC(Oc1ccccc1F)c1nnc(SCC(=O)c2c(N)n(C3CC3)c(=O)[nH]c2=O)o1 (centres undefined)	.	-15	.	.	-6	.	2	-3
C=C(C)Cc1c(C)nc(-c2ccccc2)[nH]c1=O	8	-16	-11	-3	-83	.	-1	-3
Cc1ccc(S(=O)(=O)NC(CC(C)C)C(=O)Oc2ccc3c4c(c(=O)oc3c2)CCC4)cc1 (centres undefined)	-2	-9	-5	0	.	i	0	-4
COc1ccc(C(=O)OCCNC(=O)c2c(Cl)nc3ccccn23)cc1	-12	-7	95	1	.	i	4	-2	eIF4H FP inh retest=-7;PABP FP inh retest=3
CCc1ccc2c(c1)C1(SC(NC(C)=O)=NN1C(C)=O)C(=O)N2C(C)C (centres undefined)	.	.	-8	-7	.	i	5	2
O=S(=O)(c1ccc(=S)[nH]c1)N1CCCCC1	.	-17	.	.	-3	.	-3	3
COc1ccc(Cc2nnc(SCC(=O)c3ccccc3)o2)cc1	.	-13	-3	-4	.	i	13	7
N#C/C(=C\C=C\c1ccccc1[N+](=O)[O-])c1nc(-c2ccc3c(c2)OCO3)cs1	-1	-7	-5	8	.	i	-202	9
O=[N+]([O-])c1cccc(-c2ccc3nnc(SCc4ccccn4)n3n2)c1	-12	.	8	2	-22	i	-8	-4
Cn1c(N)c(C(=O)COC(=O)C2(c3ccc(Cl)cc3)CCCC2)c(=O)n(C)c1=O	0	-6	-4	6	.	i	-1	-11
COCCN1Cc2cccc(C(=O)Nc3cccc(C)c3C)c2C1=O	48	-9	-5	-5	-61	i	1	4
CC(c1ccco1)N(C(=O)COc1ccccc1[N+](=O)[O-])c1ccccn1 (centres undefined)	-7	-18	-10	-5	.	i	0	-1
CCOC(=O)c1[nH]c2ccc(OC)cc2c1NS(=O)(=O)c1ccc(Cl)s1	-10	.	1	-10	0	i	-8	-8
O=C1/C(=C/c2ccco2)SC(=S)N1CCC(=O)N1CCCCC1CCO (centres undefined)	6	-11	.	.	-5	i	12	19
Cc1nc(NNC(=O)c2ccc([N+](=O)[O-])cc2)cc(-c2ccccc2)n1	.	-16	9	10	-4	i	0	-2
CCCCOc1ccc(CSc2nnc(C)n2N)cc1[N+](=O)[O-]	9	.	8	5	4	i	3	5
CC1CCCCC1NC(=O)CN1C(=O)NC(C)(c2cc(F)ccc2F)C1=O (centres undefined)	-15	-18	.	.	-40	.	3	-2
COc1ccc(OC)c(Nc2nc3nonc3nc2N2CCCC(C)C2)c1 (centres undefined)	11	.	-2	6	11	i	-12	2
CCN(CC(=O)Nc1ccc(NC(C)=O)cc1)C(=O)c1ccc2c(c1)S(=O)(=O)N=C1CCCCCN12	.	-13	.	.	15	i	2	4
COc1ccc(NC(=O)C2CC(=O)n3ncnc3N2)cc1 (centres undefined)	-8	0	8	2	-9	i	2	-1
c1ccc(-c2nc3c4ccccc4ccn3c2CN2CCCCC2)cc1	-15	.	1	-19	9	i	-4	-2
O=C(c1ccc(S(=O)(=O)N2CCCCCC2)cc1)N1CCN(c2ccccn2)CC1	-6	-10	8	10	.	i	4	-2
O=C(Nc1nnc(Cc2ccc(Cl)cc2)s1)c1cccnc1	3	.	9	3	19	i	1	3
CN1C(=O)C2(Oc3ccccc3C3CC(c4ccccc4)=NN32)c2ccccc21 (centres undefined)	-2	-7	-4	-3	.	i	-5	5
CCc1cc(=O)oc2c(C)c(OC(C)C(=O)NCCCn3ccnc3)ccc12 (centres undefined)	26	-5	-15	-2	-4	i	7	9

(more compounds)
SMILES	CSC inhib	UUG fidelity	eIF4H FP inh	PABP FP inh	Env fusion inh	Rce1 inh	MT1-MMP act inh	MT1-MMP act inh RFP	others
O=C(NN1CCOCC1)C12CC3CC(CC(C3)C1)C2	-3	.	-6	26	-6	i	2	6
COc1ccc2cc(C(N)=O)/c(=N\NC(=O)c3ccccc3)oc2c1	2	-45	-2	0	8	i	-4	1
CCN(c1ccccc1)c1cc(C)nc2ncnn12	3	-14	5	-5	13	i	-1	0
c1cn(CCCNc2ncnc3sc4c(c23)CCC4)cn1	.	-3	6	0	.	i	-1	-2
CC(C)c1ccc(NC(=O)Cn2c(=O)oc3cccnc32)cc1	-8	.	-1	13	-2	i	8	-3
CC(C)N(C(=O)Cn1cc(SCC(=O)N2CCCC2)c2ccccc21)C(C)C	-14	.	2	-7	2	i	1	3
Cc1cccc(C)c1NC(=O)CNC(=O)c1ccc2ccccc2n1	-15	-3	.	.	20	.	4	3
CC(=O)Nc1ccc(S(=O)(=O)Oc2cccc(/C=N/N=C3/NC(=O)C(CC(=O)O)S3)c2)cc1 (centres undefined)	-7	.	0	-9	16	i	-4	3
COc1ccc(CCN=C(N)NS(=O)(=O)c2ccc(OC)c(OC)c2)cc1OC	-16	-6	-6	0	-7	i	2	2
O=C(CNC1CCCC1)Nc1cc(Cl)ccc1[N+](=O)[O-]	3	-11	-7	-1	4	i	-2	-3
COc1ccc(CCNC(=O)c2nnn(CC(=O)Nc3cccc(F)c3)c2N)cc1OC	1	.	-6	-4	-5	i	4	-1
CCc1ccccc1NC(=O)CNC(=O)CCC(=O)c1cc(C)sc1C	.	-8	.	.	-22	.	-1	2
Cc1ccc(N(CCC#N)C(=O)CSc2nc3ccccc3c(=O)[nH]2)cc1	5	5	.	.	.	.	-5	-6
COC(=O)[C@@]12CCCN1[C@H](c1ccc(-c3ccc(F)cc3)c(OC)c1)[C@H]1C(=O)N(C)C(=O)[C@H]12	1	-13	.	.	72*	i	2	0
Cc1csc2nc(CNC(=O)c3cccc(C(F)(F)F)c3)cn12	-19	.	4	4	.	i	8	4
CCCCC1=CC2=CC(=O)C(C)(OC(=O)CCc3ccccc3)C(=O)C2=CO1 (centres undefined)	-11	-5	?	?	15	i	-3	26
CCC(=O)N(Cc1cc2cc(OC)ccc2[nH]c1=O)c1ccccc1C	-11	-9	-3	-5	-51	i	1	0
O=S(=O)(c1ccccc1)N1CCN=C1SCc1ccc(Cl)cc1	.	.	-12	18	3	i	0	4
COc1ccc(C(=O)COC(=O)c2ccc(Cl)nc2)c(OC)c1	1	4	.	.	0	i	-2	3
COc1cc(/C=C2\SC(N3CCCCC3)=NC2=O)cc(OC)c1OC	-5	.	13	8	11	i	6	2
CCOc1ccc(C2CC(=O)NC(SCC(=O)OC)=C2C#N)cc1 (centres undefined)	-15	-12	-8	8	5	i	3	-3
CCOc1ccc(OCCOCCOc2c(Cl)cccc2Cl)cc1	12	-4	.	.	.	i	4	1
CC(C)(C)c1ccc(-c2nc3cc(N)ccc3o2)cc1	11	-49	-5	-9	-187	i	2	-1
O=C(O)CSCC(=O)NCc1c(Cl)cccc1Oc1ccccc1	3	-8	-8	-4	8	i	-2	0
Cn1c(=O)c2c(nc(N3CCCCCC3)n2Cc2cccc3ccccc23)n(C)c1=O	12	48	-14	-12	5	i	-17	-17
COc1cc(C(=O)NCCNc2nc3c(C)c(C)ccc3cc2C#N)cc(OC)c1OC	-6	-5	-13	-17	14	i	2	-6
Cc1ccc(-c2cc(C(=O)N/N=C/c3cccnc3)c3ccccc3n2)cc1C	3	-21	.	.	-103	i	3	2
COc1ccccc1N1CCN(C(=O)c2ccc(S(=O)(=O)N3CCCC3)cc2)CC1	-3	.	-5	-17	.	i	8	-4
CC#CCN(Cc1ccco1)C(=O)C1CCC(=O)N(CCc2cccc(F)c2)C1 (centres undefined)	.	-2	.	.	0	.	-2	-9
COc1ccc(C(=O)Nc2ccnn2C2CCN(C(=O)c3cc(C)on3)CC2)cc1	-12	-9	-4	-4	1	.	-4	2

These rows are one share of the data; count on the stated rates, not on these rows.
